Compound activity deposited in PubChem by ICCB-Longwood Screening Facility, Harvard Medical School.
Vaccinia pol inh – blocks vaccinia virus processive DNA synthesis. AID 493162. actives 0.94% (n = 46,000). in vitro processive DNA synthesis, absorbance read-out; hits give low values; some inactives read as strong as hits. normalized absorbance, % (test concentration not listed);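 active = replicate mean up to 90% and picked by the depositor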;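 note: 100% = median of the test wells of a plate; 100 nL library stock went into each well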
* marks the source's active call; other numbers are inactive results. This is a subset; rates above refer to the full screens.

SMILES	Vaccinia pol inh
CCOc1ccc(-c2n[nH]c(=S)c3ccccc23)cc1	100
CCOC(=O)c1cnc(SCC(=O)N2CCc3ccccc32)nc1N	99
Cc1cccc(N(CC(N)=O)C2SC(=O)NC2=O)c1 (stereo not drawn)	98
c1ccc(CNCc2cn3c(-c4ccccc4)nnc3s2)cc1	99
O=c1[nH]cc(N2CCCCCC2)c(=O)[nH]1	96
N#CCC(=O)Nc1cc(Cl)cc(Cl)c1	101
CC1CCCCC1NC(=O)COc1ccc(C#N)cc1 (stereo not drawn)	97
N#Cc1cc2c(=O)n3ccccc3nc2n(CCN2CCOCC2)c1=O	101
CCOC(=O)c1c(NC(=O)/C=C\C(=O)O)sc(C)c1-c1ccccc1	63*
CCCC(C)C(=O)Nc1ccc(S(N)(=O)=O)cc1 (stereo not drawn)	98
COc1ccc(NC(c2ccccn2)c2oc(CO)cc(=O)c2O)cc1 (stereo not drawn)	90
CCCCC(=O)N1c2ccccc2C(Nc2ccccc2)CC1C (stereo not drawn)	100
COc1ccc(OCCn2c(NC(=O)c3ccccc3Cl)nc3ccccc32)cc1	100
Clc1ccc2[nH]c3c(c2c1)CN(Cc1ccccc1)CC3	105
Nc1ccc(S(=O)(=O)Nc2ccccn2)cc1	94
CCC(=O)c1ccccc1OCC(=O)Nc1c(F)c(F)c(F)c(F)c1F	103
c1nncn1N=C1CCCCC1	102
O=C(CSc1nc2ccccc2c(=O)[nH]1)NCCO	88
COc1ccc(C(C(=O)NC2CCCC2)N(C(=O)c2ccn[nH]2)c2ccc(F)cc2)cc1OC (stereo not drawn)	98
CCC(=O)N1CCc2cc(Br)cc(S(=O)(=O)NCc3ccccc3OC)c21	96
Cc1nc2nc[nH]n2c(=O)c1NS(C)(=O)=O	100
CCOC(=O)N1CC=C2C(C1)C(c1cccc(C(F)(F)F)c1)C(C#N)=C(N)C2(C#N)C#N (stereo not drawn)	100
O=C1c2ccccc2S(=O)(=O)N1CCCCN1C(=O)c2ccccc2S1(=O)=O	108
Cc1ccc(-n2cnc3ccccc32)cc1	86
O=C1c2ccccc2C(Nc2ccccc2)N1c1cccnc1 (stereo not drawn)	101
COc1ccc(-c2cc(C(=O)N3CCC(C(N)=O)CC3)c3ccccc3n2)cc1	106
Cn1c(=O)oc2cc(S(=O)(=O)NC(Cc3ccccc3)C(=O)NCc3ccco3)ccc21 (stereo not drawn)	107
COC(=O)c1ccc(COC(=O)c2ccccc2Cl)cc1	105
COc1ccccc1-n1c(-c2ccccc2)cn2c3c(=O)n(C)c(=O)n(C)c3nc12	100
Fc1cnc(Nc2cccc(Br)c2)nc1Nc1cccc(Br)c1	99
Cc1ccc(CNC(=O)c2ccc(Cn3nc(C)c(Cl)c3C)o2)cc1	100
COC(OC)(C(=O)c1ccccc1)c1ccccc1	99
CC(NC(=O)c1ccc(Cl)cc1Cl)C(=O)O (stereo not drawn)	93
CNS(=O)(=O)c1ccc(C(F)(F)F)cc1S(=O)c1ccccc1C(=O)O (stereo not drawn)	99
CC(NC(=O)c1ccc(C(C)(C)C)cc1)C(=O)O (stereo not drawn)	100
O=C1c2ccccc2C(=O)c2oc(-c3ccc(F)cc3)nc21	74
O=C(CCCn1ncn2c(cc3occc32)c1=O)N1CCCCC1	104
C=CC[n+]1c(-c2ccccc2)csc1NC(C)(C)C	86
Clc1ccc(C=NCc2ccc(-c3cccs3)s2)cc1	99
Cc1[nH]c(=S)c(C#N)c(C)c1CCC#N	105
c1ccc2c(c1)NC(c1c[nH]c3ccccc13)N2	77
COC(=O)c1c(C)oc2ccc(OCc3ccccc3)cc12	95
CCc1ccc(NC(=O)C2Cc3ccccc3C(=O)O2)cc1 (stereo not drawn)	106
CC(NC(=O)Nc1ncccn1)(C(F)(F)F)C(F)(F)F	100
COC(=O)c1cc2c(s1)-c1cc(Cl)ccc1SC2	100
Cc1cc(C)n(C(=O)CSc2nc(C)c(C)cc2C#N)n1	101
COc1ccccc1NC(=O)Cn1c(=O)n2nc(C)nc2c2ccccc21	103
C=CCNc1nc(C)nc(OC)n1	100
COC(=O)CSc1nc(C)c(Br)c(=O)[nH]1	100
COCC(=O)Nc1ccccc1-c1ccccc1	100
NC(=O)COc1ccccc1OCC(N)=O	90
Nc1c(-c2ccccc2)n[nH]c1-c1ccccc1	99
CC(C)(C)OC(=O)N1CCN(CCNC(=O)c2ccc(Cl)cc2)CC1	96
COc1ccc(C(=O)NCCc2c[nH]c3ccc(OC)cc23)cc1	128
CC(O)CNc1nc2ccccc2[nH]1 (stereo not drawn)	97
COc1ccc(CCNS(=O)(=O)c2ccc3[nH]c4c(c3c2)CCCC4)cc1OC	106
Cn1c(SCC(=O)c2ccccc2)nnc1C(F)(F)F	99
CCSC1=C(C#N)C(c2ccc(C(C)C)cc2)C2=C(CCCC2=O)N1 (stereo not drawn)	100
Cc1ccc2cc(CCNC(=O)COc3ccccc3)c(=O)[nH]c2c1	101
OCc1nc2ccccc2n1CC(O)COc1ccc(OCc2ccccc2)cc1 (stereo not drawn)	100

Exported with each value named: four of the compounds above.
structure: CC(C)(C)OC(=O)N1CCN(CCNC(=O)c2ccc(Cl)cc2)CC1
  Vaccinia pol inh: 96
structure: COc1ccc(C(=O)NCCc2c[nH]c3ccc(OC)cc23)cc1
  Vaccinia pol inh: 128
structure: CC(O)CNc1nc2ccccc2[nH]1 (stereo not drawn)
  Vaccinia pol inh: 97
structure: COc1ccc(CCNS(=O)(=O)c2ccc3[nH]c4c(c3c2)CCCC4)cc1OC
  Vaccinia pol inh: 106

(list continues)
SMILES	Vaccinia pol inh
Brc1ccc2c(ccc[n+]2C/C=C/c2ccccc2)c1	100
CC(CC[C@@H](O)C(C)C)C1CCC2C3CC=C4C[C@@H](O)CC[C@]4(C)C3CC[C@]12C (stereo partly drawn)	100
Cc1onc(-c2ccccc2)c1C(=O)NCc1ccc2c(c1)OCO2	100
COc1nc(-c2ccc(Cl)cc2Cl)nc2ccccc12	103
CCC1SC(CC)C(=O)N(CC(=O)NCCc2ccccc2)C1=O (stereo not drawn)	86
O=C(OCc1ccccc1)Oc1cncc(C(=O)O)c1	100
CCCCN1CC(C(=O)NCCc2ccc(Cl)cc2)CC1=O (stereo not drawn)	100
Cc1cc(C)c(C)c(C(=O)O)c1C	100
CC1(C)CC2CC(C)(CN2C(=O)Nc2ccc3snnc3c2)C1 (stereo not drawn)	98
CN1CCc2cc3c(cc2[C@H]1[C@@H]1OC(=O)c2c1ccc1c2OCO1)OCO3	100
CCc1nc(NCC(C)C)c(C#N)c2c1CCCC2	100
N=c1n(CC(=O)c2ccc(Cl)c(Cl)c2)c2ccccc2n1Cc1ccccc1	100
O=S(=O)(CCOc1ccccc1)N1CCOCC1	100
O=C(CSc1nnc(-c2ccccc2)o1)N1CCCC1	101
O=C(Nc1cccc(C(F)(F)F)c1)c1ccc(F)cc1	78
COc1ccccc1C(=O)Nc1ccc(CC#N)cc1	96
COC(=O)CN1c2ccccc2NC2=C(C(=O)CC(C)(C)C2)C1c1ccc(OC)cc1 (stereo not drawn)	100
O=C(/C=C\c1ccc2c(c1)OCO2)Nc1nnc(-c2ccccc2)s1	100
Cc1cc2c(cc1C)C(=O)C(c1ccccc1)=C(NCc1ccccc1)C2=O	94
O=C(O)C(Cc1c[nH]c2ccccc12)N1C(=O)C2CC=CCC2C1=O (stereo not drawn)	102
O=C(O)CC(NC(=O)c1ccccc1Cl)c1ccccc1 (stereo not drawn)	103
CC1(C)CC(=O)CC(=NC2CCS(=O)(=O)C2)C1 (stereo not drawn)	105
Cc1nn(C(=O)c2ccc(Cl)cc2)c(C)c1Sc1nnc(C(F)(F)F)n1C	100
O=S(=O)(/N=C(\Nc1ccccc1)c1ccccc1)c1ccc(Br)cc1	100
CC(=O)Nc1nc2ccc(S(=O)(=O)N3CCCC3)cc2s1	104
N#Cc1ccc(/C=C/C(=O)NCc2ccccc2)cc1	100
Nc1c(C(=O)c2ccc(Cl)cc2)sc2nsc(SCCN3CCOCC3)c12	95
O=c1c2c3c(sc2[nH]c(=S)n1Cc1ccccc1)CCCCC3	99
Cc1ccc(N2CCN(c3ccc(C)cc3)C23C(=O)c2ccccc2C3=O)cc1	100
NNC(=O)c1ccc(/C=N\O)nc1	99
C[n+]1c2cc(N)ccc2cc2ccc(N)cc21	10*
Cc1ccc(S(=O)(=O)/C(C#N)=C/Nc2cc(C(F)(F)F)cc(C(F)(F)F)c2)cc1	111
O=c1[nH]c(CCl)nc2ccccc12	102
COC(=O)C1=C(C)NC2=C(C(=O)CC(c3cccs3)C2)C1c1cccs1 (stereo not drawn)	92
C=CCOc1ccc2c3c(c(=O)oc2c1)CCC3	100
O=C(CC12CC3CC(CC(C3)C1)C2)N1CCN(c2ccc(F)cc2)CC1	100
COc1ccc2c(c1)cc1n2CCN=C1N	90
CC(=O)NN1C(=O)c2cccc3c(N(C)C)ccc(c23)C1=O	96
O=C(/C=C/c1ccccc1)N1CCN(Cc2ccccc2)CC1	100
O=S(=O)(NCCC12CC3CC(CC(C3)C1)C2)c1cccc2nsnc12	99
Nc1cc(=O)nc(SCC(=O)Nc2ccc(Cl)cn2)n1-c1ccccc1	101
CC(C)C1NC(C(=O)O)Cc2c1[nH]c1ccccc21 (stereo not drawn)	93
CCCc1ccc(OCC(O)CN2CC(C)OC(C)C2)cc1 (stereo not drawn)	101
COc1ccc2nc(Nc3ccccc3)sc2c1	96
CSc1ccc(Cl)c(C(=O)OCC(=O)N2CCC(C)CC2)c1	100
CCC(C(=O)Nc1c(-c2ccccc2)nc2cc(C)ccn12)c1ccccc1 (stereo not drawn)	104
Cc1c(CCO)sc[n+]1Cc1ccccc1	108
CCN(CC)C(=O)c1sc2nc3c(cc2c1N)CCCCC3	100
O=C(NCC(c1cccnc1)N1CCN(Cc2ccccc2)CC1)c1ccccc1 (stereo not drawn)	100
Nc1nc(-c2ccco2)nn1C(=O)Cc1ccccc1	100
CC(C)c1ccc(C2Nc3ccccc3S(=O)(=O)N2Cc2ccccc2)cc1 (stereo not drawn)	94
Cc1ccc(C(=O)CSc2cccc[n+]2[O-])cc1	77
Clc1cc(-c2ccccc2)c2ccccc2n1	98
CCOC(=O)CSc1sc(C(=O)OCC)c2c1S(=O)(=O)N(C)c1ccccc1-2	104
COc1cc(OC)c(C(=O)NCC2CCCO2)cc1OC (stereo not drawn)	92
CC1CNc2ccccc2N=C1N1CCOCC1 (stereo not drawn)	100
O=C(O)c1ccccc1Sc1ccccc1S(=O)(=O)NC12CC3CC(CC(C3)C1)C2	93
COc1ccc(N2C(=O)C=CC2=O)cc1OC	99
CC(=O)Nc1ccc(Nc2ncnc3c2c(-c2ccccc2)cn3-c2cccc(C)c2)cc1	98
CC(C)Cc1ccc(C(C)C(=O)NC(C)Cc2c[nH]c3ccccc23)cc1 (stereo not drawn)	100
Carrying on.
SMILES	Vaccinia pol inh
CCN(CC)S(=O)(=O)c1ccc2c(c1)c(=O)c(C(=O)O)cn2C	91
O=C(CSc1nnc(-c2ccccc2)o1)N1CCc2ccccc21	99
CCOc1ccc(CCNC(=O)c2cc3c(=O)oc4ccc(C)cc4c3s2)cc1	98
CC1CCCC(NCCNC(=O)c2ccco2)C1 (stereo not drawn)	100
COC(=O)c1cc(-c2ccc(OCc3ccccc3)c(OC)c2)no1	101
CN(C(=O)c1ccco1)C1CC(C)(C)N(O)C(C)(C)C1	93
COc1ccc(N=Cc2cc(Br)ccc2O)c(OC)c1	97
Cn1c(=NC(=O)c2ccc(Br)s2)sc2cc(F)ccc21	100
O=C1CCC(=O)N1c1ccccc1-c1ccccc1	100
Cc1ccc(-n2nnc3c(SCC(=O)NCc4ccccc4Cl)ncnc32)cc1	99
CC(NC(=O)CSc1nc(N)cc(=O)[nH]1)c1ccccc1 (stereo not drawn)	100
COC(=O)c1ccc(N2C(=O)C(C)SC2c2ccccc2)cc1 (stereo not drawn)	101
CC(C)(C)c1cc2c(c(C(C)(C)C)c1)OCN(CC(=O)O)C2	100
c1ccc(CCNc2ncnc3scc(-c4ccccc4)c23)cc1	97
CCCC(=O)Nc1nc2ccc(C(=O)OCC)cc2s1	112

14 entries out of the list, sorted by formula weight, falling.
SMILES	Vaccinia pol inh
CC(=O)Nc1ccc(Nc2ncnc3c2c(-c2ccccc2)cn3-c2cccc(C)c2)cc1	98
CCOc1ccc(CCNC(=O)c2cc3c(=O)oc4ccc(C)cc4c3s2)cc1	98
CC(C)Cc1ccc(C(C)C(=O)NC(C)Cc2c[nH]c3ccccc23)cc1 (stereo not drawn)	100
COC(=O)c1cc(-c2ccc(OCc3ccccc3)c(OC)c2)no1	101
CCN(CC)S(=O)(=O)c1ccc2c(c1)c(=O)c(C(=O)O)cn2C	91
O=C(CSc1nnc(-c2ccccc2)o1)N1CCc2ccccc21	99
COc1ccc(N=Cc2cc(Br)ccc2O)c(OC)c1	97
c1ccc(CCNc2ncnc3scc(-c4ccccc4)c23)cc1	97
COC(=O)c1ccc(N2C(=O)C(C)SC2c2ccccc2)cc1 (stereo not drawn)	101
CC(C)(C)c1cc2c(c(C(C)(C)C)c1)OCN(CC(=O)O)C2	100
CC(NC(=O)CSc1nc(N)cc(=O)[nH]1)c1ccccc1 (stereo not drawn)	100
CCCC(=O)Nc1nc2ccc(C(=O)OCC)cc2s1	112
O=C1CCC(=O)N1c1ccccc1-c1ccccc1	100
CC1CCCC(NCCNC(=O)c2ccco2)C1 (stereo not drawn)	100

Remaining list, next part.
SMILES	Vaccinia pol inh
Nc1ncnc2nc(SCc3nc4ccccc4n3Cc3ccccc3)[nH]c12	106
O=C(Cc1ncc(C(F)(F)F)cc1Cl)Nc1ccc(N2CCOCC2)cc1	106
O=C(O)c1ccccc1N=Cc1ccco1	100
Nc1nonc1NC(=O)CSc1ccc(Cl)cc1	88
O=C1CCC(Sc2ccccc2C(=O)O)N1 (stereo not drawn)	117
COC(=O)c1ccc(NC2SC(=O)NC2=O)cc1 (stereo not drawn)	100
c1ccc(C2C/C(=N\n3cnnc3)c3ccccc3O2)cc1 (stereo not drawn)	97
